Ecoli rRNA inh – inhibits bacterial ribosomal RNA function over humanized ribosomes; AID 720706; E. coli WT GFP vs humanized-ribosome RFP mutants, fluorescence, 24 h; stronger effect = lower value; DMSO median 0, no signal -100; actives 1.6% (n = 350,000); GFP signal change (wild-type ribosome), % (concentration not given with the values);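 active = significant combined selectivity score with lowered wild-type GFP, culture density cut under 30%, mutant RFP and density less affected; inactive = any of these conditions unmet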; also: one replicate is shown; some compounds called inactive have numbers as strong as hits
Calb FLC – C. albicans growth modulation with fluconazole. AID 1979. actives 0.57% (n = 300,000). growth inhibition, % (test concentration not listed). C. albicans CaCi-2 (fluconazole-resistant clinical isolate) + fluconazole, Alamar Blue growth, 48 h;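 active = most replicates above 75%; inconclusive = exactly half above 75%; inactive = most below 75%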;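 also: all wells also contain fluconazole at 8 µg/ml as a sub-toxic cotreatment; 0% = median of DMSO wells and 100% = median of geldanamycin control wells; wells of about 8 µL received 7.5 nL stock; the first replicate is given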
Beta apoptosis – beta cell apoptosis inhibition; INS-1E cytokine-induced death, ATP luminescence, 48 h; percent of positive-control rescue, neutral wells zero; protection from apoptosis, % (concentration not given with the values); actives 0.8% (n = 300,000); AID 435005;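 active = all replicates at 75% or more, or half of them and the mean; inconclusive = half reach 75% but not the mean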;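 also: 0% = cytokine-treated negative control wells and 100% = positive control rescue; higher means more ATP so stronger rescue from cytokine killing; wells of about 40 µL received 100 nL stock; the first replicate is given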
ALR H2O2 inh – inhibitors of human sulfhydryl oxidase ALR | P55789 | purified ALR, DTT oxidation, H2O2 HRP-luminol luminescence | inhibition, % (test concentration not listed) | actives 3.8% (n = 290,000);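 active = mean and each replicate at 75% or more; inconclusive = only one of the two met; inactive = neither met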;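 also: stock transfer was 7.5 nL into about 7.5 µL; 0% = neutral wells and 100% = wells with inactivated enzyme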
Target sequence (P55789 whole entry, looked up): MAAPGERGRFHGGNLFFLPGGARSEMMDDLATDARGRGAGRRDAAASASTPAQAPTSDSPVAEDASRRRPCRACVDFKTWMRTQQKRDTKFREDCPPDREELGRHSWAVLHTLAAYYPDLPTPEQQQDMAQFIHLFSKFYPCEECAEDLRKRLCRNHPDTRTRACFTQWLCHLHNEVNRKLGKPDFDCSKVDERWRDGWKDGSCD
LANA-H2A inh – blocks KSHV LANA binding to histone H2A/H2B; Q9QR71; cell-free LANA-H2A/H2B peptide, fluorescence polarization; inhibition, % (concentration not given with the values); actives 0.6% (n = 320,000); AID 2629; in the data active = inhibition mostly above about 10%, no sharp cut-off; inactive = mostly below about 6.7%;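 also: stock transfer was 7.5 nL into about 10 µL; 0% = median of vehicle wells and 100% = median of positive control wells; one replicate is shown; the record names a cut of 25% in any replicate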
A1 inh – inhibitors of the anti-apoptotic protein A1, read as caspase activation; MEF A1-2A-BIM cells, Caspase-Glo 3/7 luminescence, 3 h; percent of clofoctol response, vehicle zero; caspase activation, % (no concentration beside the values); actives 0.066% (n = 330,000); AID 2462;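 active = over half of replicate activation scores above 10%, or exactly half above 10 with the replicate mean above 10; inconclusive = replicate mean below 10 yet half the replicates above 10; inactive = over half of replicates below 10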;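 also: wells of about 30 µL received 50 nL stock; many hits fall short of the cut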
T cruzi repl – T. cruzi replication inhibition. inhibition, % (concentration not given with the values). actives 1.4% (n = 300,000). T. cruzi beta-gal in NIH3T3, luminescence, 90 h;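 active = mean inhibition across valid replicates above about 55%, limit read from the data; inconclusive = mean below that limit but half or more replicates reach it; inactive = mean below it, under half of replicates reach it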;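 also: signal also drops with host cell toxicity which is not excluded here; 0% = plate median of DMSO wells and 100% = zero luminescence signal; higher percent means less beta-gal luminescence so fewer parasites; stock transfer was 50 nL into about 50 µL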
Beta2AR agonist – agonists of human beta-2 adrenergic receptor inducing internalization; Am2.2-beta2AR cells, FAP receptor internalization, flow cytometry; reference of the scale not given here; response, % (concentration not given with the values); actives 0.43% (n = 340,000); AID 504454;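 active = response above a set limit, near 3 SD of response in nonfluorescent compounds, cut at about 42% in these data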;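 also: stock transfer was 100 nL into about 11 µL; a reference agonist was the positive control; negative values mostly stem from fluorescent compounds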
Target sequence (P07550 whole entry, looked up): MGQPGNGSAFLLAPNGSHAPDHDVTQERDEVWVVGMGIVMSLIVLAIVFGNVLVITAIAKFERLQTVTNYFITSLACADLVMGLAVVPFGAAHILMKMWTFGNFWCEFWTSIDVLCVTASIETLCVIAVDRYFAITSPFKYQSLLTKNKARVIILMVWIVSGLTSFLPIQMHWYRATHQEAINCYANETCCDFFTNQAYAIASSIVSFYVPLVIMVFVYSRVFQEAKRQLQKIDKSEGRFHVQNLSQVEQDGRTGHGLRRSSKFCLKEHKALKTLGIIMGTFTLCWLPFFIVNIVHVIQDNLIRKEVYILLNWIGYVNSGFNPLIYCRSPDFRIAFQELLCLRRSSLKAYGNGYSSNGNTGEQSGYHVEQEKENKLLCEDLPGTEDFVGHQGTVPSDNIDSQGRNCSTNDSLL
Ecoli rRNA inh OD600 – also measured in Ecoli rRNA inh; calls as there; OD600 change, %; measured here: OD600 growth;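 optical density of the mix in the first replicate; 0 = DMSO median and -100 = no signal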
Ecoli rRNA inh RFP – also measured in Ecoli rRNA inh; calls as there; RFP signal change, %; measured here: RFP humanized mutant strains;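 first replicate; 0 = DMSO median and -100 = no signal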
Active calls of the source: *; ? = inconclusive; · = no result given. The list is partial; rates above refer to the full screens.

Compound | Ecoli rRNA inh | Ecoli rRNA inh OD600 | Ecoli rRNA inh RFP | Calb FLC | Beta apoptosis | ALR H2O2 inh | LANA-H2A inh | A1 inh | T cruzi repl | Beta2AR agonist
Cc1ccc(S(=O)(=O)N2CCCCC2)cc1NC(=O)CCNC(=O)c1ccccc1 | 6.6 | 14.6 | 0.5 | · | -1.5 | -5.3 | 0.6 | 0.7 | · | 1.7
O=C1NCCCC1C(=O)N/N=C/c1cc([N+](=O)[O-])ccc1O (centres undefined) | 1.3 | -4.3 | -3.6 | 13.7 | 1.9 | -4.4 | 2.7 | 0.0 | 5.9 | -6.1
COc1ccc(/C=N/N2C(C)CCCC2C)cc1O (centres undefined) | 5.2 | -5.3 | 1.9 | 2.9 | 1.9 | 34.0 | 4.6 | 0.2 | -16.4 | -5.7
C/C=C\C=C/C(=O)Nc1cccc(C2=NOC3(C2)C[C@@H](C(N)=O)N(C(=O)c2ccc(Cl)cc2)C3)c1 (some centres undefined) | 11.3 | 7.5 | 2.7 | 17.7 | -2.6 | 3.7 | -0.8 | 1.1 | -4.8 | -1.1
Cn1c(-c2ccc(F)cc2)cnc1NCc1ccccc1 | · | · | · | 6.3 | 1.9 | 69.2 | -4.1 | 0.1 | -2.7 | -8.1
Cn1c(SCC(=O)N2CCCCCC2)nnc1-c1ccco1 | 0.4 | 17.0 | -1.4 | 4.9 | -1.0 | 2.9 | 5.8 | -0.3 | -10.2 | -18.2
COc1cc(C2C(C#N)=C(N)OC3=C2C(=O)CCC3)c([N+](=O)[O-])cc1OC (centres undefined) | · | · | · | 5.5 | · | -54.4 | 3.7 | 0.4 | 2.8 | 0.7
COc1ccccc1-c1nnc(SC/C(O)=C(\C#N)c2nc3ccccc3[nH]2)n1C1CCCCC1 | · | · | · | 21.4 | -7.8 | -9.1 | -1.3 | -1.1 | 11.5 | -4.6
COc1ccc(-c2csc(NC(=O)c3cc(=O)c4ccccc4o3)n2)cc1OC | -0.6 | 3.3 | 7.9 | 9.4 | 6.2 | -21.6 | 0.0 | 0.3 | 1.1 | -0.1
CCn1c(=O)cc(SCC(=O)N2CCN(c3ccccc3F)CC2)c2ccccc21 | · | · | · | 13.6 | -2.2 | 20.6 | 2.7 | -1.1 | 7.4 | -3.5
C=C(C)C1CC=C(CN2CCC(C(=O)OCC)CC2)CC1 (centres undefined) | · | · | · | -29.5 | -2.5 | -2.3 | 5.3 | -1.3 | 8.2 | 5.9
CCCCN1CCc2c([nH]c3ccccc23)C1=O | · | · | · | -9.6 | -4.0 | 21.6 | 6.6 | 0.2 | 22.5 | -2.1
Cc1c(Cl)cccc1NC(=O)CNC(=O)C1CCN(C(=O)Nc2ccccc2)CC1 | · | · | · | · | -6.0 | -0.2 | 0.0 | 0.7 | · | 4.2
COCCn1c(SCC(=O)Nc2cccc(S(N)(=O)=O)c2)nc2ccccc21 | · | · | · | -1.3 | -0.3 | -4.4 | 3.6 | 0.1 | 0.8 | 1.5
O=C(CN1C(=O)/C(=C/c2ccc(F)cc2)SC1=S)NC1CCS(=O)(=O)C1 (centres undefined) | 7.0 | 10.8 | 2.7 | -6.1 | -2.5 | 8.2 | 6.9 | -0.3 | -5.5 | -4.2
COc1ccc(N=C2NC(=O)C(CO)(CO)S2)cc1 | 4.1 | 5.7 | -1.7 | -4.2 | -1.2 | -19.2 | -2.5 | 1.1 | -6.6 | 11.4
O=C(CN1C(=O)COc2ccccc21)Nc1ccc(N2CCOCC2)cc1 | 3.7 | 0.5 | -1.1 | -8.9 | -4.0 | 11.2 | 3.7 | -0.5 | -0.9 | 5.6
CN(C)C(=O)c1ccc(Oc2ccc(C(=O)N(C)C)cc2)cc1 | · | · | · | 1.7 | -3.9 | -6.0 | -2.6 | 0.9 | 2.0 | -7.2
COc1cccc(-c2csc(N3CCN(CC(=O)NNC(=O)c4ccc(Cl)cc4)CC3)n2)c1 | -1.7 | -4.1 | 3.6 | 2.3 | -1.5 | -8.0 | -8.6 | 0.3 | 43.4 | 2.8
CCOC(=O)C1CCCN(C(=O)c2cc(Nc3ccc(OC)cc3OC)nc3ccccc23)C1 (centres undefined) | · | · | · | -5.0 | -1.2 | 35.5 | 3.7 | 0.3 | 14.1 | -3.3
COc1ccc(-n2c(Cc3cccn3C)nnc2SCC(=O)Nc2ccc(C)c(Cl)c2)cc1 | -0.4 | -2.2 | 1.0 | -9.2 | -2.2 | 3.4 | -0.3 | -2.1 | -1.8 | -4.3
COc1ccc(-c2[nH]c(-c3ccc(C)cc3)nc2SCC(=O)Nc2nccs2)cc1 | -16.5 | -20.4 | 18.2 | 30.8 | · | 94.1* | -0.4 | 1.2 | -21.7 | -3.5
COc1cc(OC)cc(C(=O)N[C@H](C(=O)Nc2cccc(S(=O)(=O)N3CCCC3)c2)C(C)C)c1 | 6.4 | 0.8 | 1.2 | 10.2 | 1.1 | -6.3 | 0.9 | 0.3 | 20.6 | 3.5
Nc1cccc(-c2nc3ccc(N)cc3s2)c1 | · | · | · | 3.4 | 12.0 | 99.0* | 5.7 | -0.7 | 10.0 | 10.2
Cc1ccc2cc(CN(Cc3nnnn3C3CCCC3)C3CCCCC3)c(=O)[nH]c2c1C | 8.1 | 3.8 | -4.5 | 11.7 | · | · | · | · | -7.1 | 1.2
Fc1ccc(C2=Nn3c(Cc4ccccc4)nnc3SC2)cc1 | · | · | · | -0.3 | -23.9 | 0.3 | 0.6 | -0.2 | -1.0 | -18.9
COc1ccc(C(C)=O)cc1COC(=O)c1ccc(N)c([N+](=O)[O-])c1 | 15.8 | 6.9 | 5.4 | -12.3 | -0.6 | -2.1 | 2.6 | 0.9 | -21.5 | -3.3
COC(=O)CC1C(=O)NC2CCCCC2N1C(=O)c1ccccc1 (centres undefined) | · | · | · | -0.8 | -8.9 | -1.6 | 4.2 | -0.4 | -2.3 | 3.2
O=C(Nc1cc(Sc2ccccn2)cc([N+](=O)[O-])c1)c1cccc(F)c1 | · | · | · | 19.2 | 83.5* | · | 1.9 | 1.1 | 30.3 | -9.8
CC(C)NC(=O)COc1ccc(S(=O)(=O)N2CCOCC2)cc1 | · | · | · | 0.9 | · | -2.2 | -0.2 | 0.7 | -6.3 | 4.9
Cc1ccsc1/C=N/NC(=O)c1ccco1 | · | · | · | 20.7 | 0.5 | -2.1 | -2.6 | -2.0 | -12.6 | 3.7
Cc1ccccc1OC(C)c1nc(-c2ccccc2)no1 (centres undefined) | · | · | · | -4.4 | -1.5 | 0.8 | 0.2 | 0.0 | 4.4 | -18.6
CNC(=O)CSc1nnc(-c2ccco2)n1-c1cccc(C)c1C | -0.8 | 1.4 | -9.4 | -2.3 | -5.2 | -13.3 | 3.2 | 0.3 | 0.5 | 1.2
CCOC(=O)c1cc(-c2ccccc2)sc1NC(=O)c1ccc(OC)cc1 | · | · | · | ? | 24.6 | -1.5 | 0.6 | 0.4 | -4.2 | ·
Cc1ccc2cccc(Oc3cnccn3)c2n1 | · | · | · | -12.1 | 1.1 | -51.7 | 5.3 | -0.2 | 0.6 | -1.7
CSc1nc(-c2ccccc2)c(-c2ccccc2)[nH]1 | · | · | · | -4.6 | 29.9 | -0.6 | -6.7 | 0.3 | -3.6 | -17.7
CC1CCc2c(sc3ncn(N)c(=N)c23)C1 (centres undefined) | 8.5 | -7.8 | -0.8 | -23.8 | -0.1 | · | -0.1 | 0.4 | -4.4 | 0.3
O=C1NC2(CCCCCC2)C(=O)N1Cc1ccccc1Br | 2.0 | -1.3 | -0.3 | -5.5 | -2.5 | -1.0 | 4.0 | 0.3 | -2.5 | -2.3
C=CCNC(=O)/C(C#N)=C/c1c(N2CCN(c3ccccc3)CC2)nc2c(C)cccn2c1=O | 8.5 | 9.4 | -4.8 | 5.4 | 4.5 | 2.7 | 0.1 | -0.5 | -6.1 | -0.5
COc1cc(C(=O)NC(=S)Nc2ccc(NC(=O)c3ccco3)cc2)cc(OC)c1OC | · | · | · | 10.7 | 15.5 | · | 2.2 | 0.0 | -6.2 | 9.4
O=c1cc(-c2ccccc2)n(S(=O)(=O)c2ccccc2)o1 | · | · | · | -5.2 | -1.6 | -3.5 | -2.6 | 0.6 | -4.9 | -2.0
CCNc1ccc(S(=O)(=O)C(F)(F)F)cc1NC(=O)C12CCC(CC1)C2 | -9.3 | -0.6 | -3.8 | 4.8 | -2.2 | 5.2 | 0.4 | -0.3 | 9.3 | 4.5
CC(C)COc1ccc(C(=S)N2CCCC2)cc1 | -8.6 | -9.5 | -3.9 | -1.1 | 10.1 | -8.5 | 0.3 | 0.1 | -14.3 | -19.1
O=C(CCCOc1ccc(Cl)cc1Cl)NCC1CCCO1 (centres undefined) | · | · | · | -0.5 | -3.8 | -33.0 | -0.8 | 0.6 | 9.9 | -2.5
Cc1c(NCc2ccccc2O)c(=O)n(-c2ccccc2)n1C | -2.9 | 2.7 | -10.7 | 3.1 | 7.1 | · | -1.2 | -0.4 | -9.0 | -6.9
Cc1ccc(S(=O)(=O)N(C)C)cc1NC(=O)CSc1nnc(C2CC2)n1C1CC1 | 3.3 | 6.3 | 0.7 | · | -0.3 | · | 4.0 | 0.3 | · | -2.0
OCCC1CN(Cc2ccncc2)CCN1C1CCCC1 (centres undefined) | 17.0 | 12.8 | 3.5 | -5.5 | 0.7 | -1.4 | -5.7 | 0.2 | 1.8 | -0.5
CC(C)(C)c1ccc(-c2nc(NCc3cccnc3)c3ccccc3n2)cc1 | · | · | · | 3.6 | 11.9 | 64.8 | -2.3 | 0.0 | 20.6 | 3.0
Cc1ccc(S(=O)(=O)N2CCC(=O)N(CCOCc3cccc(C(F)(F)F)c3)CC2)cc1 | -2.6 | -1.5 | 1.3 | 3.1 | 6.3 | -10.5 | -2.8 | 1.2 | 5.0 | -4.6
Cn1nc([N+](=O)[O-])nc1Oc1ccc(C(C)(C)C)cc1 | 2.9 | -1.4 | -7.2 | -27.6 | -2.1 | -8.3 | 1.8 | -0.2 | 64.0* | -4.7
CCOC(=O)c1[nH]c2ccc(OC)cc2c1NC(=O)CN1CCN(c2ccccn2)CC1 | · | · | · | 4.4 | 4.1 | -2.8 | -5.5 | -1.6 | 17.4 | ·
Cc1cccn2c(=O)c(C=NCCO)c(NCc3ccco3)nc12 | · | · | · | 3.9 | -3.8 | 39.5 | 2.2 | 0.8 | -6.9 | 4.8
c1cncc(-c2noc(C34CC5CC(CC(C5)C3)C4)n2)c1 | · | · | · | -104.0 | -10.0 | -10.2 | 1.3 | 0.8 | -0.5 | -3.8
